High-throughput results (PubChem BioAssay)
Arbovirus inh = blocks arbovirus infection. inhibition, % at 10 µM. 200,000 tested, 0.37% active. arbovirus infection cell-based antiviral screen. AID 1251;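 active = inhibition from about 30%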;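 also: bluetongue infection of BSR cells; cell survival read as ATP light after 72 h; 0% = infected wells without compound and 100% = uninfected wells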
RecA splice inh = inhibitors of M. tuberculosis RecA intein splicing. P9WHJ3. 290,000 tested, 0.75% active. cell-free RecA intein splicing, fluorescence. AID 2221. inhibition, %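 (about 9 µM by stock and volumes)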; in the data active = inhibition above about 30%; inconclusive = no clear call, values can overlap the other calls;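 also: 0% = vehicle wells and 100% = reference inhibitor control wells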
Target sequence (P9WHJ3 whole entry, looked up, canonical isoform): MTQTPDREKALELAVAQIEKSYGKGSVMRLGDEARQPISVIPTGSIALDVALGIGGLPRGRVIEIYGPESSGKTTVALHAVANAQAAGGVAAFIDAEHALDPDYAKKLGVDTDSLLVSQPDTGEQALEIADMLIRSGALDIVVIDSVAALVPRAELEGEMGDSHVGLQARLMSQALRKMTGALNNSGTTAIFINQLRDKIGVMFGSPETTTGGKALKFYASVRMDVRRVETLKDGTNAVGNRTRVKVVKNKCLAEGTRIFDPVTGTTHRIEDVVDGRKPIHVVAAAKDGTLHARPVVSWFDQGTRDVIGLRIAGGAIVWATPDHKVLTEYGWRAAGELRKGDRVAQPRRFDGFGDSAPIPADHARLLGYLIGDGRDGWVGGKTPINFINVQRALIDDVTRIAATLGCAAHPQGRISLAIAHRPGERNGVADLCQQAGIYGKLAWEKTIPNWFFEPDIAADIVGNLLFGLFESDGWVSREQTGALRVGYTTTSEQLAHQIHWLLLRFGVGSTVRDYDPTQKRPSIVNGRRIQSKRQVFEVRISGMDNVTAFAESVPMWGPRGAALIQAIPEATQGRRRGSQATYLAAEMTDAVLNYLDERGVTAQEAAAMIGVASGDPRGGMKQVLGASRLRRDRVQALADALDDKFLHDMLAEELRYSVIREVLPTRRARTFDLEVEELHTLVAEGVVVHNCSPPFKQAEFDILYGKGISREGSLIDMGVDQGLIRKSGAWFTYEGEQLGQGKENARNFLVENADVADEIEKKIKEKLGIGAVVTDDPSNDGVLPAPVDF
YopH PTP inh = inhibitors of Yersinia enterocolitica YopH tyrosine phosphatase; inhibition, %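 (about 10 µM by stock and volumes)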; 140,000 tested, 0.16% active; fluorescence Ex485/Em525; AID 898;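 active = inhibition of 50% or more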;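 also: controls were vehicle for no effect and minimum signal wells for full effect; inactives centre near -20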
Mtb bLac sens = beta-lactam sensitization of Mtb H37Rv. M. tuberculosis H37Rv growth with meropenem, percent inhibition; hits of this screen are not shown here. inhibition, % at 25 µM. 330,000 tested, 0.27% active;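 active = about 74% or more and at least 40 points above the plate without the antibiotic, then above 30% in a dose series; inconclusive = first-round hits that could not be retested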;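 also: growth measured after seven days incubation then overnight dye step; 0% = bacteria only wells and 100% = bacteria with antibiotic; twin plates without the antibiotic show which effects depend on it; some results filed as inactive read as strong as hits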
Mtb H37Rv = M. tuberculosis H37Rv growth inhibitors, H37Rv strain (AID 1626); M. tuberculosis H37Rv growth inhibition; higher % means a stronger effect; inhibition, % at 10 µM, or IC50 in µM where a hit was titrated; 220,000 tested, 0.95% active;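 active = confirmed in a dose series; inconclusive = inhibition above 80% but not taken into the dose series; inactive = below 80% or under 30% at every dose of the series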;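 also: bacteria incubated seven days before Alamar blue readout; 0% = bacteria only wells and 100% = bacteria with antibiotic wells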
Arbovirus inh repeat = recorded beside Arbovirus inh, whose call it bears; inhibition, %; measured here: 10K subset replicate screen; many hits read low in the repeat;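 first of two repeat runs on a subset; 0% = infected and 100% = uninfected wells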
Numbers without * were called inactive; ? = inconclusive; nt = not tested or not shown. A portion of the library, so the mix of outcomes need not match the whole.

SMILES | Arbovirus inh | RecA splice inh | YopH PTP inh | Mtb bLac sens | Mtb H37Rv | others
O=C(CCN1C(=O)C2C3C=CC(C3)C2C1=O)NCc1cccnc1 (stereo not drawn) | 3.8 | 0.9 | -33.7 | 11.9 | -4.0%
C=CCc1cc(C)ccc1OCCn1ccnc1 | -0.6 | 0.6 | -7.7 | 29.8 | -2.5%
Cc1ccc(NC(=S)NC2CCSc3ccccc32)cc1 (stereo not drawn) | nt | -0.9 | nt | 9.2 | nt
O=C(Nc1nccs1)C1CC(=O)N(c2ccc(Cl)cc2)C1 (stereo not drawn) | 3.0 | -2.5 | nt | -2.8 | -6.8%
O=C(/C=C/c1ccccc1)Oc1ccccc1C(=S)N1CCOCC1 | 1.8 | -0.6 | nt | -0.6 | -3.4%
Cc1ccc(OCC(O)CNCc2ccc(F)cc2)cc1 (stereo not drawn) | nt | 0.4 | nt | -4.6 | nt
CN1CC(C(=O)O)Cc2c1ccc1ccccc21 (stereo not drawn) | nt | -58.3 | nt | 2.0 | -8.7%
CCn1c(=S)sc2c(=O)n(-c3ccccc3)c(SCC(=O)NCc3ccco3)nc21 | 10.6 | -3.6 | -47.8 | nt | 6.2%
O=C1c2ccccc2C(=O)C1c1ccccn1 | nt | 0.3 | nt | -0.6 | 2.8%
CCc1noc(C)c1C(=O)Nc1cccc2ncccc12 | nt | -0.3 | nt | 0.8 | nt
CCOC(=O)c1cnn(-c2nc(-c3ccccc3)cs2)c1C(F)(F)F | 10.1 | 1.3 | -28.9 | 67.9 | 7.2%
CCOC(=O)c1[nH]c2cc3c(cc2c1NC(=O)CN1CCN(CCO)CC1)OCO3 | nt | -4.0 | nt | 3.2 | 3.2%
O=C(Cn1c(=O)sc2ccccc21)NCc1ccccn1 | -3.7 | 1.2 | -21.1 | -2.3 | -3.9% | Arbovirus inh repeat=8.0
c1ccc(C(c2ccccc2)c2noc(CN3CCN(C4CCCC4)CC3)n2)cc1 | -23.2 | 0.0 | nt | -1.1 | 3.9%
O=C(c1cccc2ccccc12)N1CCCCC1 | nt | 0.1 | nt | 1.9 | nt
Cc1nc2ccccc2c(=O)n1-c1cccnc1 | -7.3 | 1.3 | -7.8 | -2.3 | -7.9%
COc1ccccc1CNC(=O)C(=O)NCCC1CCCCN1S(=O)(=O)c1ccc(C)cc1 (stereo not drawn) | nt | 0.4 | nt | -8.4 | nt
O=C(NCc1ccco1)c1sc(=S)n2c1[nH]c(=O)c1ccccc12 | 1.8 | -42.2 | -46.8 | -2.6 | -4.3%
Cc1cccc(C(=O)c2cn[nH]c2-c2ccccc2O)c1 | nt | -2.1 | nt | -1.7 | nt
Cn1cccc1/C=N\NC(=O)Cc1ccc(Br)c2ccccc12 | -2.8 | -0.5 | nt | 4.2 | 7.5%
CCCCn1c(N)c(N(CCOC)C(=O)C(C)N2C(=O)c3ccccc3C2=O)c(=O)[nH]c1=O (stereo not drawn) | nt | -2.5 | nt | 2.3 | nt
CCc1nc2oc3cc(OC)ccc3c(=O)c2c(=O)n1-c1ccccc1 | 3.8 | -0.7 | -40.9 | -3.4 | 5.8%
Cc1ccccc1NC(=O)c1ccc(NC(=O)C2CCCO2)cc1 (stereo not drawn) | nt | -0.7 | nt | 2.0 | nt
CCCCCCCC(=O)N/N=C(\C)c1ccc(O)cc1O | -33.9 | -1.3 | -27.6 | -10.2 | 11.6%
CC1=Nn2c(nc3sc4c(c3c2=O)CCCC4)SC1 | -4.5 | -0.7 | -23.0 | -0.1 | 5.2%
CCOc1ccc(-c2nnc3ccc(SC)nn23)cc1 | 0.4 | -11.7 | -49.2 | -6.0 | -1.4%
CC(C)N(Cc1nc(-c2ccc(Cl)cc2)no1)C(=O)CCC1CCCC1 | -7.4 | 4.0 | -48.0 | 7.5 | 11.2% | Arbovirus inh repeat=-22.6
COC(=O)c1ccc(-c2nc(-c3cccs3)no2)cc1 | -2.0 | nt | -32.7 | 2.1 | 12.0% | Arbovirus inh repeat=-9.7
Cc1ccc(NC(=O)N2CCCC2C(=O)NCc2cccs2)cc1 (stereo not drawn) | 4.3 | -0.3 | 3.9 | -4.5 | -6.2%
O=C(Cc1nnc(NC(=O)Nc2ccccc2F)s1)NCc1ccccc1 | nt | -3.7 | nt | -4.9 | nt
O=C(CN1C(=O)NC2(CCCCC2)C1=O)N1CCN(S(=O)(=O)/C=C/c2ccccc2)CC1 | nt | -0.5 | nt | -13.2 | nt
Cc1cc(NC(=O)CN2CCCC(C)C2)n(-c2nc3ccccc3s2)n1 (stereo not drawn) | -15.2 | -0.9 | 8.8 | nt | nt
CSc1nc(NCCOCCO)c2sc3nc(-c4ccco4)c4c(c3c2n1)CCC4 | 2.4 | 11.6 | -31.0 | 5.5 | 3.0% | Arbovirus inh repeat=11.9
COc1ccc(CC(=O)NC(C)c2nnc(SCC(=O)Nc3nc(C)cs3)n2C)cc1 (stereo not drawn) | -0.2 | -0.5 | -8.4 | 7.4 | -0.4%
O=C(CN1CCCc2ccccc21)NC(=O)NC1CCCCC1 | -0.8 | -1.5 | nt | -8.6 | 6.1%
CCCCOc1ccc(C(C)=O)cc1Cc1c(O)[nH]c(=S)[nH]c1=O | nt | 0.3 | nt | -4.1 | nt
Cc1cc(NC(=O)c2ccccc2)ccc1NC(=O)Cc1ccccc1 | nt | -1.8 | nt | 3.4 | nt
CCOC(=O)c1sc2nc(C)nc(SCC(=O)NC(C)CCc3ccccc3)c2c1C (stereo not drawn) | 4.6 | -1.9 | -26.2 | 1.0 | -1.1%
O=C(NCCc1ccccn1)c1cc(-c2ccccc2Cl)nc2ccccc12 | -5.5 | -0.6 | -8.8 | -0.7 | 6.2%
CC1CCN(CCCCOc2ccccc2Br)CC1 | -9.3 | -4.2 | -12.8 | 0.2 | -1.0%

Reprinted at random: 4 entries already listed
SMILES | Arbovirus inh | RecA splice inh | YopH PTP inh | Mtb bLac sens | Mtb H37Rv | others
CCc1nc2oc3cc(OC)ccc3c(=O)c2c(=O)n1-c1ccccc1 | 3.8 | -0.7 | -40.9 | -3.4 | 5.8%
CC1CCN(CCCCOc2ccccc2Br)CC1 | -9.3 | -4.2 | -12.8 | 0.2 | -1.0%
Cc1cc(NC(=O)CN2CCCC(C)C2)n(-c2nc3ccccc3s2)n1 (stereo not drawn) | -15.2 | -0.9 | 8.8 | nt | nt
CC(C)N(Cc1nc(-c2ccc(Cl)cc2)no1)C(=O)CCC1CCCC1 | -7.4 | 4.0 | -48.0 | 7.5 | 11.2% | Arbovirus inh repeat=-22.6

Continuation:
SMILES | Arbovirus inh | RecA splice inh | YopH PTP inh | Mtb bLac sens | Mtb H37Rv | others
Cc1cc(=O)n2nc(N3CCCC(C(=O)NCc4cccc(Cl)c4)C3)sc2n1 (stereo not drawn) | nt | 0.5 | nt | -2.8 | nt
CC1CCN(S(=O)(=O)c2ccc3c(c2)C(=NO)c2cc(S(=O)(=O)N4CCC(C)CC4)ccc2-3)CC1 | -40.9 | nt | -14.9 | 2.6 | 2.9%
O=C(c1ccc(COc2c(F)c(F)cc(F)c2F)o1)N1CCN(c2ccc(Cl)cc2)CC1 | 4.2 | 0.2 | -36.4 | 1.6 | -2.1%
CCOC(=O)c1oc2ccccc2c1NC(=O)c1ccc(S(=O)(=O)N2CCCC2)cc1 | -10.7 | 0.0 | -19.6 | -2.5 | -4.1%
CCCCn1c(NCc2cccs2)nc2ccccc21 | -3.8 | 4.3 | nt | -3.7 | 13.6%
CCC1=C(OC(=O)N(CC)CC)N2C(=O)OC(=NCC(=O)OC)[C@]2(Cc2ccccc2)[C@H]2C1=CC[C@H]1C(=O)N(c3ccccc3)C(=O)[C@H]12 | nt | 3.2 | nt | -4.5 | -8.8%
O=C(CCNS(=O)(=O)c1cccc2nonc12)NC1CCCc2ccccc21 (stereo not drawn) | -1.2 | nt | -34.4 | 6.2 | 8.0%
O=C(CCCCn1c(=O)[nH]c2ccsc2c1=O)NCc1cccnc1 | -2.1 | 0.4 | -34.4 | -1.2 | -4.1%
CCS(=O)(=O)c1nnnn1-c1ccccc1S(C)(=O)=O | 9.2 | 8.3 | 30.1 | -0.9 | -9.9%
O=C(c1ccc([N+](=O)[O-])cc1)N1CCN(Cc2ccccc2[N+](=O)[O-])CC1 | 13.5 | -3.9 | nt | 5.9 | -2.6%
CCCCS(=O)(=O)N1CCCC(C(=O)NCC2CCCO2)C1 (stereo not drawn) | nt | -2.2 | nt | -2.1 | nt
O=C(CCn1c(=O)[nH]c2ccccc2c1=O)N1CC=C(c2ccccc2)CC1 | -6.9 | nt | nt | -1.0 | -2.0%
Nn1c(SCC(=O)NCCC2=CCCCC2)nnc1C(F)(F)F | 0.5 | -8.0 | -5.0 | -10.5 | -8.5%
COCCNC(=S)N/N=C/c1ccc(N2CCOCC2)cc1 | -5.8 | -5.7 | -28.8 | -4.4 | -5.3%
CCC(Sc1ccc2nnc(-c3ccc(F)cc3)n2n1)C(=O)O (stereo not drawn) | 5.2 | 0.3 | 4.5 | -4.2 | -1.0%
CC1CCN(S(=O)(=O)c2ccc3c(c2)N(CC(=O)NCCCN(Cc2ccccc2)C(C)C)C(=O)CO3)CC1 | nt | 0.2 | nt | -1.5 | nt
CC(=O)Nc1ccc2c(c1)ncn2C1CCCCC1 | 4.0 | 0.4 | -16.1 | 23.1 | -1.1%
CCOC(=O)C(=CNc1ccc(O)c(C(=O)OC)c1)C(=O)OCC | nt | -2.4 | nt | 9.1 | 4.3%
COc1ccc(Br)cc1C(=O)Nc1cccc(C)c1C | -13.5 | -1.3 | -9.9 | -0.1 | 3.2%
Cc1ccc(CN2CCN(Cc3ccc(-n4cccn4)cc3)CC2CCO)cc1 (stereo not drawn) | -7.3 | 4.2 | nt | -7.1 | 2.3%
COc1ccc(S(=O)(=O)N2CCOCC2)cc1NC(=O)c1ccc(Cl)cc1 | nt | -2.8 | nt | -8.7 | nt
NS(=O)(=O)c1ccc(CNC(=O)Cc2ccsc2)cc1 | nt | -3.7 | nt | -8.1 | nt
O=C(COc1ccc2ccccc2c1)N/N=C/C1CC=CCC1 (stereo not drawn) | -2.9 | 1.1 | -29.3 | 5.7 | 76.2%
CN(C(=O)COC(=O)c1nc(Cl)ccc1Cl)C1CCS(=O)(=O)C1 (stereo not drawn) | nt | 1.3 | nt | -1.9 | nt
CC12CC(c3ccccc3O1)C(/C(N)=N/NC(=O)c1ccc(F)cc1)C(=O)N2 (stereo not drawn) | -19.9 | -1.7 | -17.3 | 1.1 | -1.2%
CCN(CC)C(=O)N1CCC(NC(=O)c2ccccc2)CC1 | -4.1 | 2.0 | -27.7 | -3.8 | -3.5%
Cc1cc(C)cc(N(CC(=O)NCc2ccco2)S(=O)(=O)c2c(C)noc2C)c1 | 19.1 | 1.2 | -47.2 | -1.6 | -10.6% | Arbovirus inh repeat=0.6
COc1ccc(N2CCN(S(=O)(=O)/C=C/c3ccccc3)CC2)cc1 | 2.5 | -2.2 | -22.2 | -10.1 | -1.4%
Cc1oc(-c2ccccc2)nc1Cn1cccc1C1=NC(c2ccccc2)CO1 (stereo not drawn) | 8.5 | 4.1 | -29.9 | 5.5 | -3.3%
COc1ccc2[nH]c3c(NCCN(C(C)C)C(C)C)ncnc3c2c1 | 14.0 | nt | -59.3 | -1.7 | -3.9%
Cc1cc(C)cc(OCC(=O)OCC(=O)N(C)CC(=O)Nc2ccc(F)cc2)c1 | nt | -0.2 | nt | 3.6 | nt
O=C(Nc1cccc(C(F)(F)F)c1)NC1CCCCC1 | -6.7 | 0.7 | 1.7 | 99.8 | ?
CCC(C)NC(=O)CC(NS(=O)(=O)c1ccc(NC(C)=O)cc1)C(C)C (stereo not drawn) | 0.5 | -1.7 | nt | -10.8 | 1.9%
CC(=O)c1cccc(N(CC(=O)NCC2CCCO2)C(=O)CCC(=O)Nc2cc(C)on2)c1 (stereo not drawn) | -4.3 | -0.6 | -17.0 | -4.2 | 1.9%
COc1cccc2sc(N(CCN(C)C)C(=O)c3ccc(S(=O)(=O)N4CCCC4)cc3)nc12 | nt | 2.6 | nt | ? | nt
CCn1c(SCC(=O)c2cc(OC)ccc2OC)nnc1-c1ccncc1 | nt | 1.2 | 8.8 | -4.6 | -0.9%
COc1ccc(/C=N/NS(=O)(=O)c2ccc(C)cc2)cc1OC(=O)c1ccccc1 | 14.7 | -5.1 | -19.1 | -2.9 | 5.5%
CC(C)(C)C(=O)CN1C(=O)NC(c2ccccc2)(c2ccccc2)C1=O | nt | -1.6 | nt | -0.5 | nt
Cc1ccc(NC(=O)c2ccc3c(=O)n4c(nc3c2)CCCCC4)cc1F | nt | -1.0 | nt | 6.5 | nt
CC(C)CCn1nnnc1CN1CCN(C(=O)c2ccco2)CC1 | nt | -3.5 | nt | 7.6 | nt
O=C(CN1C(=O)C2C3C=CC(C4CC34)C2C1=O)NCc1ccco1 (stereo not drawn) | 1.3 | -0.3 | nt | -2.1 | -0.8%
